Source: PubChem BioAssay (National Center for Advancing Translational Sciences (NCATS))
gsp ag: activates gsp, the McCune-Albright syndrome mutation | Potency, µM (top dose mostly 76.9 µM), inactives show top-dose activation (cAMP increase), hits mostly activators | 340,000 compounds, 0.13% hits | gsp mutant cells, cAMP HTRF, 30 min; control for the full effect not named in the record; active = well fitted activation curve with a large enough effect; inconclusive = small, poorly fitted or top-dose-only effect, or another doubt; inactive = no such curve, though single readings can be large or run the other way; cell line not stated here;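 also: phosphodiesterase inhibitor Ro 20-1724 added with compounds to block cAMP breakdown; potency is read from the fitted curve at half-maximal effect; nearly all actives have a fitted effect of over 60% in size; about a fifth of the inactives were tested at one dose only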
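Cells in DMEM/10% FBS with G418 were pretreated with compounds in DMSO plus […] (300 uM stock) for 30 min at 37C. cAMP was measured by HTRF (cAMP-d2 plus anti-cAMP antibody-K) after 30 min at room temperature.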
TRPML1 agonist: human mucolipin-1 channel agonism; Q9GZU1; TRPML1-expressing cells, Ca2+ dye fluorescence, FDSS; host cell line not named in the record; reference of the full effect not given here; activation, % (concentration not given with the values); 410,000 compounds, 0.12% hits; AID 624414; in the data active = activation above about 50%; inconclusive = about 30% to 50%; inactive = below about 30%; also: 0% is about no effect; the text of the record puts the active cut at 80%
Target sequence (Q9GZU1 whole entry, looked up): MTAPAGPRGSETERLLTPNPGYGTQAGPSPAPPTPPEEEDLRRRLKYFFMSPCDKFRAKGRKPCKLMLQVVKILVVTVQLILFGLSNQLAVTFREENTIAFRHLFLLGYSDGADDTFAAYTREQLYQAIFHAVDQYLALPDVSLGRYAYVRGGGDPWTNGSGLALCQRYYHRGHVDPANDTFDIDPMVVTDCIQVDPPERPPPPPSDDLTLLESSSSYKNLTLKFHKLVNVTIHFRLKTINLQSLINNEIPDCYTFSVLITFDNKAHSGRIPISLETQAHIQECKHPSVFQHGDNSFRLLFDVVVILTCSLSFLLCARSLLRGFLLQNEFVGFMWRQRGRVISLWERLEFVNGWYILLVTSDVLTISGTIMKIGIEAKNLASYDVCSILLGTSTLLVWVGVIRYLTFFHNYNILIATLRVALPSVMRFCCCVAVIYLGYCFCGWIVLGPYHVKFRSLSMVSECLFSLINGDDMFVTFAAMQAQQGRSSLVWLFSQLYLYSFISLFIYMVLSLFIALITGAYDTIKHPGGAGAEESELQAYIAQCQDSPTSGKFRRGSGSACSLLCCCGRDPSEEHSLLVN
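In this qHTS format, compounds were pin-transferred onto Ca8-dye-loaded TRPML1-DL cells induced with Tet overnight, and intracellular Ca2+ fluorescence was recorded kinetically for 110 s after a 10 s baseline. A subsequent 4uM final 54-4 (EC80) addition followed by a second 110 s read served as the antagonist phase.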
gsp antag: antagonizes gsp, the McCune-Albright syndrome mutation | gsp-mutant cells, cAMP HTRF, 30 min; control for the full effect not named in the record | Potency, µM (top dose mostly 76.9 µM), inactives show top-dose activity change, negative = inhibition, hits mostly inhibitors | 340,000 compounds, 0.4% hits | AID 624288; active = falling curve of any shape with a large fitted effect; inconclusive = falling curve, mostly with a smaller effect; inactive = flat or rising curve; cell line not stated here;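 also: intracellular cAMP measured with PDE inhibitor Ro 20-1724 present during compound exposure; potency is read from the fitted curve at half-maximal effect; % is scaled to controls: 0 for no effect and ±100 for the full control effect; nearly all actives have a fitted effect of over 65% in size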
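Measurement of cellular cAMP by homogeneous time-resolved fluorescence following a 30 min compound exposure at 37C. The PDE inhibitor […] was present throughout; the assay buffer was DPBS with 0.05% BSA and 0.005% Tween 20.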
ClpP mod: qHTS Assay for Activators of ClpP; Potency, µM (doses to about 57.5 µM), for the others: top-dose activity change, negative = active; purified B. subtilis ClpP, FRET peptide cleavage, 20 min; 340,000 compounds, 1.9% hits; active = well fitted falling curve with a large enough effect; inconclusive = small, poorly fitted or top-dose-only effect; inactive = no such curve, though single readings can be large or run the other way; also: potency is read from the fitted curve at half-maximal effect; the source files actives as falling curves though it sought activators and does not explain the sign; nearly all actives have a fitted effect of over 65% in size; many hits overshoot -100%
Target sequence (P80244 whole entry, looked up): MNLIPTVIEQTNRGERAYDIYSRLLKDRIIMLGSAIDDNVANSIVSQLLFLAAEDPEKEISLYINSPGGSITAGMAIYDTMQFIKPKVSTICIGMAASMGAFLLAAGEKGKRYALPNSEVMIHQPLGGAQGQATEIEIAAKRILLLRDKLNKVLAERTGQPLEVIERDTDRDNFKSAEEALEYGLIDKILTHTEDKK
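ClpP 10 microg/mL final, pH 8 Tris/KCl buffer with BSA, glycerol, Tween-20; compound pinned in; FRET-FV substrate; RT 20 min; Ex320/Em430; ΔFRET vs ADEP 5.8 microM, DMSO, no enzyme.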
TRPML1 blocker: inhibitors of human TRPML1 channel; AID 624415; TRPML1-inducible cells, Ca2+ dye fluorescence, FDSS; stronger effect = lower value; inhibition of EC80 agonist-evoked calcium signal; activity change, negative = inhibition, % (no concentration beside the values); 390,000 compounds, 0.02% hits; in the data active means activity change below about -50%; inconclusive means about -30% to -50%; inactive means above about -30%;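 also: stimulus is agonist 54-4 at its EC80 concentration; % is scaled to controls: 0 for no effect and ±100 for the full control effect; compound concentration not given in the record; the text of the record puts the active cut at -80%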
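TRPML1-DL cells, Tet-induced overnight (~16 h, 37 °C) at 1,500 cells/well, were loaded with Ca8 no-wash dye plus quencher for 45-90 min at room temperature. Compounds were pinned during FDSS kinetic reading; agonist 54-4 at EC80 (4 uM final) then added.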
Menin MLL FP FL: menin-MLL binding inhibition, fluorescein peptide; FP activity change, % at 61.4 µM; Fluorescence polarization, fluorescein-MLL peptide displacement from menin; AID 1766; 290,000 tested, under 10 active; inconclusive = falling polarisation curve, or a change in total fluorescence; inactive = total fluorescence flat and polarisation flat or rising; no compound was filed as active; the % refers to the polarisation; negative = inhibition;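 also: % of control where 0% means no effect; inhibitors lower the polarisation; unlabelled MLL peptide was the positive control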
* hit, by the source's call; ? = inconclusive; / = not tested or not shown; & = joins results of further samples; ! = not active in a repeat; [ ] = another dose, or the depositor's remark.

Under each structure – TRPML1 blocker, gsp antag, ClpP mod, gsp ag, TRPML1 agonist, Menin MLL FP FL
COc1ccc(-n2c(SC(C)C(=O)Nc3ncc(Cl)cc3Cl)nc3ccccc32)cc1 (stereo unspecified)
  12, -18%, -26%, -23%, 0.1, -0.4
COc1ccc(N2C(=O)CC(N3CCC(O)(c4ccc(Br)cc4)CC3)C2=O)cc1 (stereo unspecified)
  8, -16%, 1.5%, 2%, 0.1, 0.9
CC1CC(C)(C)N(C(=O)CSc2ccc(-c3ccc(F)cc3)nn2)c2ccccc21 (stereo unspecified)
  -13, -12%, -0.4%, -76%[inhibitor], 0.3, 2.9
O=C(Nc1sc2c(c1C(=O)O)CCC2)C(=O)N1CCOCC1
  11, ?, 1.4%, 13%, 4.3, /
Cc1ccc(-c2ccc(CCC(=O)O)n2-c2ccc(C(N)=O)cc2)cc1
  0, /, -3.9%, /, 0.4, /
COc1ccc(/C(C)=N/NC(=S)NCc2ccco2)cc1
  1, -1%, 0.9%, -41%[inhibitor], 1.2, 0.8
Cc1cc(-c2ccco2)c(C#N)c2nc3ccccc3n12
  0, -2%, ?, ?, 11, ?
COc1cc(/C=C/C(=O)c2c(O)ccc3c(C)cc(=O)oc23)ccc1O
  24, 8%, 28µM*!, -1%, -0.6&-0.4, -1.1
CCN(CC)S(=O)(=O)c1cccc(C(=O)NC(C)C(c2cccs2)N2CCCC2)c1 (stereo unspecified)
  18, 5%, -3.4%, -129%[inhibitor], 3.5, 5.4
O=S1(=O)CCN(OCc2ccc(Cl)cc2)CC1
  6, 8%, /, -54%[inhibitor], -0.1, -1.0
O=C(NNC(=O)c1ccccc1O)c1ccc(NS(=O)(=O)c2ccc(F)c(F)c2)cc1
  -3, 14%, -6.9%, -22%, -0.8, /
Cc1ccc(NCCCn2cnc(C(=O)Nc3ccc(C)c(C)c3)n2)cc1C
  -8, 2%, 1.6%, /, -0.6, /
CCc1nnc(SCc2ccc(F)cc2Cl)c2cc3sc(C)cc3n12
  26, /, -1.6%, /, 1.0, /
CC1(C)CC(=O)C=C(c2cccc3c2oc2ccccc23)C1
  13, -19%, -5.1%, -1%, 2.1, /
COc1ccc(CNC(=O)CSc2nnnn2Cc2ccccc2)cc1
  -2, 15%, 1.2%, 0%, 1.1, -0.5
COc1ccc(S(=O)(=O)N2CCCCC2)cc1NC(=O)c1ccc(CS(C)(=O)=O)cc1
  13, -11%, -3.8%, 5%, -0.4, /
COc1cc(-c2nc3ccccn3c2/N=C/c2cc(OC)c(O)cc2Cl)ccc1O
  -13, ?, /, 34%, 0.6, -0.5
CC(=O)Oc1cc2oc(=O)cc(C)c2cc1OC(C)=O
  1, -5%, ?, -14%, -0.3, 4.2
Cc1cc(C)nc(SCCn2c(N3CCOCC3)nc3c2c(=O)[nH]c(=O)n3C)n1
  8, 2%, 0.0%, 1%, -0.5, -0.4
Cc1ccc(NC(=O)Nc2cccs2)c(Cl)c1
  10, -23%, -2.9%, -1%, 1.9, 8.2
CC(=O)c1ccc(OCCN2CCOCC2)cc1
  -19, 13%, 0.1%, -15%, 0.0, -0.3
C=CCNCCOCCOc1ccc(C)cc1Br
  -13, 15%, 1.1%, -4%[15.4 µM], 0.5, /
O=C(CCCc1c[nH]c2ccccc12)NCc1cccs1
  -9, 1%, -4.9%, -7%, 1.6, 1.9
Cc1cccc(C)c1-n1ncc(C(=O)NC2CCCC2)c1C1CCN(C(=O)OC(C)(C)C)CC1
  6, /, 2.2%, /, 1.5, /
c1ccc(SCCc2ccncc2)cc1
  -12, 5%, -6.8%, 6%, 0.0, 3.1
CC1CCN(S(=O)(=O)N2CCC(C(=O)NCCC3=CCCCC3)CC2)CC1
  -13, 5%, -0.6%, -5%, 1.0, -5.4
O=C1CC(NN2CCCCC2)C(=O)N1c1ccccc1 (stereo unspecified)
  17, 12%, 0.8%, -7%[15.4 µM], -0.8, 5.2
CCOC(=O)c1c(NC(=O)/C=C/c2ccccc2)sc2c1CCCC2
  3, /, -0.4%, /, -0.6, /
COc1cccc(-c2nn3c(=O)cc(CN4CCN(C(=O)/C=C/c5ccccc5)CC4)nc3s2)c1
  -11, /, -1.8%, /, -1.1, /
CC(C)c1cc(Br)ccc1OCCCN1C(=O)NC(C)(C)C1=O
  -10, 11%, 1.5%, -2%, 0.7, -0.8

4 entries drawn at random from the list so far:
Under each structure – TRPML1 blocker, gsp antag, ClpP mod, gsp ag, TRPML1 agonist, Menin MLL FP FL
Cc1ccc(NC(=O)Nc2cccs2)c(Cl)c1
  10, -23%, -2.9%, -1%, 1.9, 8.2
Cc1cccc(C)c1-n1ncc(C(=O)NC2CCCC2)c1C1CCN(C(=O)OC(C)(C)C)CC1
  6, /, 2.2%, /, 1.5, /
Cc1cc(C)nc(SCCn2c(N3CCOCC3)nc3c2c(=O)[nH]c(=O)n3C)n1
  8, 2%, 0.0%, 1%, -0.5, -0.4
O=C(Nc1sc2c(c1C(=O)O)CCC2)C(=O)N1CCOCC1
  11, ?, 1.4%, 13%, 4.3, /

The results go on:
Under each structure – TRPML1 blocker, gsp antag, ClpP mod, gsp ag, TRPML1 agonist, Menin MLL FP FL
O=c1cc(-c2ccccc2)cc(-c2ccccc2)n1CCO
  4, 2%, -3.6%, /, -0.5, /
Brc1csc(C=Nc2ccc3c(c2)OCCOCCOCCOCCO3)c1
  5, -20%, -0.1%, 9%[15.4 µM], -0.4, ?
COc1ccccc1C(CNC(=O)CCNS(=O)(=O)c1ccc(Br)cc1)N1CCCC1 (stereo unspecified)
  5, 8%, /, -4%[15.4 µM], 1.3, /
COc1ccc(C(=O)NCCS(=O)(=O)NCCc2ccccc2)cc1
  -9, -2%, /, 21%[15.4 µM], 1.2, /
Cc1ccc(NC(=S)N2CCN(Cc3ccccc3)CC2)cc1
  11, -7%, /, -50%[inhibitor], 0.0, -0.4
C=CCNc1nc(Cl)ncc1F
  -11, 9%, -24%, -4%[15.4 µM], 1.1, -0.8
O=C(CSc1nnc(NC(=O)c2cccc(F)c2)s1)NC1CCCC1
  22, -7%, /, -3%[15.4 µM], -0.2, -7.5
Cc1ccccc1-c1nnc(SCC(=O)Nc2c(C)n(C)n(-c3ccccc3)c2=O)o1
  ?, -7%, -0.9%, ?, 0.0, /
O=C(Nc1nnc(C2CC2)s1)c1cccs1
  6, -6%, -0.1%, 5%, -0.3, /
Nn1c(SCC(=O)Nc2ccc3c(c2)OCCO3)nnc1-c1ccccn1
  -10, 5%, 0.8%, 22%[15.4 µM], -0.1, 0.1
CC1CCN(c2nn3c(=O)c(C(=O)NCc4ccc(Cl)cc4)cnc3s2)CC1
  1, /, -14%, /, -1.1, /
C=CCc1cc(/C=C2/NC(=O)N(CC)C2=O)cc(OCC)c1OCc1ccc(C(=O)O)cc1
  -10, -25%, -15%, -53%[inhibitor], 3.1, 3.4
COc1ccc(NC(=O)C2CCN(S(=O)(=O)c3ccc4c(c3)CCCC(=O)N4)CC2)cc1OC
  -4, /, 1.0%, /, 2.7, /
CSC1=C(C#N)C(c2ccccc2Cl)C(C(C)=O)=C(C)N1 (stereo unspecified)
  33, -21%, -4.0%, -6%, 1.7, -0.9
O=C(NCCc1ccccc1F)C1CCCN1S(=O)(=O)c1ccc2ccccc2c1 (stereo unspecified)
  22, -23%, -0.7%, -39%[inhibitor], 0.9, 2.7
O=C1COc2ccc(S(=O)(=O)CCC(=O)N3CCN(c4ccccc4)CC3)cc2N1
  5, -1%, 0.3%, 40%, 0.3, -3.6
CC(C)=C(NC(=O)c1ccccc1)C(=O)NC(Cc1ccccc1)C(=O)O (stereo unspecified)
  0, -1%, /, ?, 0.5, -2.2
COc1cccc(C(=O)C2CCCN(C(=O)c3ccccn3)C2)c1 (stereo unspecified)
  5, 1%, -5.1%, ?, 0.6, 0.5
CCOc1ccc(C(=O)CCC(=O)Nc2ccc(C)cn2)cc1
  4, 1%, 0.3%, -1%[15.4 µM], 0.8, /
COc1ccccc1/C=C/C(=O)c1c2c(c(C)[nH]c1=O)CCCC2
  -9, 50µM*, 0.0%, 25%, -0.3, 8.2
C/C(=N\NC(=O)c1cccc(O)c1)c1cccc(NC(=O)c2ccc(F)cc2)c1
  37, -24%, -3.7%, ?, 1.1, /
CC1CCCN(C(=O)C(C)Nc2cc(Cl)ccc2N2CCOCC2)C1 (stereo unspecified)
  -5, ?, /, 11%, 1.6, 0.9
CN(CC(=O)Nc1c(Cl)cccc1Cl)C(=O)c1ccncc1
  17, 7%, -1.3%, ?, 0.7, /
CCN(Cc1ccccc1)S(=O)(=O)c1c(C)[nH]c(C)c1C(=O)N1CCCC1
  11, 6%, -4.1%, -27%, -0.7, 0.1
Cc1ccc(NC(=O)CSc2nc(-c3ccco3)cc(C(F)(F)F)n2)c(C)c1
  -12, /, -0.4%, /, 0.6, /
CSc1ccccc1NC(=O)Nc1ccc(Cl)cc1
  6, -22%, 0.0%, 18%, 1.7, 2.1
COc1ccc(NC(=O)CN2CCN(c3ccc(F)cc3)CC2)cc1Cl
  1, 1%, 1.6%, -3%, 1.3, 0.0
Cc1ccc2oc(-c3ccc(NC(=O)CCC(=O)O)cc3)nc2c1
  -3, /, 3.6%, /, 0.2, /
CC(C)[C@H]1COCCS(=O)(=O)N1Cc1ccccc1
  16, 0%, -2.3%&-1.4%, 17%, 0.2&-0.8, /
C/C(Cn1nnc([N+](=O)[O-])n1)=N\NC(=O)c1ccc(O)cc1
  -2, 12%, 1.4%, 34%, 0.7, 1.3

Next part
Under each structure – TRPML1 blocker, gsp antag, ClpP mod, gsp ag, TRPML1 agonist, Menin MLL FP FL
CS(=O)(=O)N1N=C(c2ccc(Cl)cc2)CC1c1cccs1 (stereo unspecified)
  7, 1%, -2.7%, 4%, 0.2, 2.0
Cc1nc(NC(=O)COC(=O)c2cccs2)c(Cl)cc1Cl
  -18, 2%, -1.0%, -55%[inhibitor], 0.0, /
O=C(c1nc2ccccc2s1)N1CCSCC1
  7, -6%, -0.5%, -5%, 0.0, 3.0
COc1ccc(F)cc1S(=O)(=O)NC1CCCC1
  3, 14%, 0.0%, -24%, -0.1, -0.6
CCn1c(-c2csc3ccccc23)n[nH]c1=S
  -9, 10%, -4.1%, -39%, 0.8, 1.7
CCOC(=O)c1c(NC(=O)COC)sc(C(C)=O)c1C
  3, -13%, -0.4%, 25%, -0.6, 0.0
O=C(/C=C/NCc1cccnc1)C(F)(F)C(F)(F)F
  -14, 10%, /, -10%[15.4 µM], 0.7, 0.4
CCc1nc2ccc(C(=O)NCc3cccc(Br)c3)cc2nc1CC
  -18, /, -27%, /, -0.9, /
S=c1[nH]nc(-c2cc(-c3ccccc3)n[nH]2)n1/N=C/C=C/c1ccccc1
  -17, -18%, 1.8%, 4%, 1.6, ?
COc1ccc(CNCCCC(=O)Nc2c(Cl)ccc(C)c2Cl)cc1OC
  12, -11%, /, 8%[15.4 µM], 0.3, -1.1
